# Screening results: PubChem BioAssay, several laboratories
# Arbovirus inh – antivirals against arbovirus infection; 200,000 compounds, 0.37% hits; arbovirus infection cell-based antiviral screen; inhibition, % at 10 µM; AID 1251;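 active means inhibition from about 30%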;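 further: bluetongue infection of BSR cells; cell survival read as ATP light after 72 h; 0% = infected wells without compound and 100% = uninfected wells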
# RecA splice inh – inhibitors of M. tuberculosis RecA intein splicing; inhibition, %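 (about 9 µM by stock and volumes)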; 290,000 compounds, 0.75% hits; P9WHJ3; AID 2221; cell-free RecA intein splicing, fluorescence; in the data active means inhibition above about 30%; inconclusive means no clear call, values can overlap the other calls;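 further: 0% = vehicle wells and 100% = reference inhibitor control wells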
# Target sequence (P9WHJ3 whole entry, looked up, canonical isoform): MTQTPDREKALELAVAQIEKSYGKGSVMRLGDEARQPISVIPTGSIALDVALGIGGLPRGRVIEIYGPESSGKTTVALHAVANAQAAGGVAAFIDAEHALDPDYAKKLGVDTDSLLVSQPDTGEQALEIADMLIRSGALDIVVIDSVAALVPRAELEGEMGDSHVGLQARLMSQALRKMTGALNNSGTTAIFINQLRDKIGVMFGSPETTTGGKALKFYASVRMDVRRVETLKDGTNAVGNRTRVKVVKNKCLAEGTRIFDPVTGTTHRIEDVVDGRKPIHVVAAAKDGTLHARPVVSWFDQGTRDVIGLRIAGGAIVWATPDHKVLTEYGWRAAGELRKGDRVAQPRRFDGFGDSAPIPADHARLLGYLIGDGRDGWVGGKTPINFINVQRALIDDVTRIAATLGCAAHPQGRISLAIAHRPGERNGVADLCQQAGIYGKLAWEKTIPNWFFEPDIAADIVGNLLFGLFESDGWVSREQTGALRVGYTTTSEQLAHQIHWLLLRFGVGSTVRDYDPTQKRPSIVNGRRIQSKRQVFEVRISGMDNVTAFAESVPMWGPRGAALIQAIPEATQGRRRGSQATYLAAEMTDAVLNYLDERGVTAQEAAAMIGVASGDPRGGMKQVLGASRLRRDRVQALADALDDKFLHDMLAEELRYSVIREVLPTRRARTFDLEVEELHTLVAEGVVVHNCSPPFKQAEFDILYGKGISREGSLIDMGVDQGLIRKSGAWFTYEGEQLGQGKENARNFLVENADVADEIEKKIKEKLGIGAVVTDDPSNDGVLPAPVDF
# YopH PTP inh – YopH (Yersinia) phosphatase inhibition | inhibition, %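 (about 10 µM by stock and volumes)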 | fluorescence Ex485/Em525 | AID 898 | 140,000 compounds, 0.16% hits;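 active means inhibition of 50% or more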;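 further: controls were vehicle for no effect and minimum signal wells for full effect; inactives centre near -20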
# Mtb betalactam – beta-lactam sensitization of Mtb H37Rv; M. tuberculosis H37Rv growth with meropenem, percent inhibition; hits of this screen are not shown here; inhibition, % at 25 µM; 330,000 compounds, 0.27% hits;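 active means about 74% or more and at least 40 points above the plate without the antibiotic, then above 30% in a dose series; inconclusive means first-round hits that could not be retested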;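 further: growth measured after seven days incubation then overnight dye step; 0% = bacteria only wells and 100% = bacteria with antibiotic; twin plates without the antibiotic show which effects depend on it; some results filed as inactive read as strong as hits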
# Mtb growth – M. tuberculosis H37Rv growth inhibitors, H37Rv strain (AID 1626). M. tuberculosis H37Rv growth inhibition; higher % means a stronger effect. one-dose inhibition, % at 10 µM; IC50 in µM for titrated hits. 220,000 compounds, 0.95% hits;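 active means confirmed in a dose series; inconclusive means inhibition above 80% but not taken into the dose series; inactive means below 80% or under 30% at every dose of the series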;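 further: bacteria incubated seven days before Alamar blue readout; 0% = bacteria only wells and 100% = bacteria with antibiotic wells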
# Arbovirus inh repeat – further read-out of Arbovirus inh, marked with its call; inhibition, %; measured here: 10K subset replicate screen; many hits read low in the repeat;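 first of two repeat runs on a subset; 0% = infected and 100% = uninfected wells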
# Active calls of the source: *; u = inconclusive; x = not tested or not shown. Only part of the results is shown (hit frequency here may not be typical).
SMILES,Arbovirus inh,RecA splice inh,YopH PTP inh,Mtb betalactam,Mtb growth,others
Fc1ccc(N2CCN(Cc3cc4c(cc3Br)OCO4)CC2)cc1,x,7.8,x,1.3,x,
CCC(C)[C@H](N)c1nnc(SCC(=O)Nc2ccc(C)cc2C)o1 (some centres not stated),x,-1.4,x,1.8,x,
O=C(Nc1ccc(F)cc1F)c1ccc2nc(N3CCOCC3)sc2c1,x,2.1,x,2.8,x,
Cc1cc(C)nc(SCC(=O)N2CCc3ccccc32)n1,x,0.7,x,5.5,x,
COc1ccc(CN2CCC(N3CCC(C(=O)N4CCOCC4)CC3)CC2)c(F)c1,-2.7,-0.1,x,-1.1,-2.6%,
Cc1ccc2oc(=O)c3cnn(CC(=O)NC4CCCCC4C)c3c2c1 (configuration not stated),0.1,-1.9,-39.7,3.5,-1.9%,Arbovirus inh repeat=1.4
c1csc(-c2noc(COc3ccc4c(c3)CCCC4)n2)c1,9.7,3.6,-2.3,6.9,9.2%,
COc1ccc(NC(=O)CSc2ncnc3[nH]ncc23)cc1,x,0.6,x,u,-1.0%,
S=C(N/N=C/c1ccc(Br)cc1)N1CCCCC1,x,-0.6,x,70.3,x,
CN1CCN(C(=O)/C(=C/c2ccccc2)c2ccccc2)CC1,2.4,x,-0.6,-2.2,-10.2%,
CCCOc1ccc(C(=O)NCCC(=O)NCCCC(=O)OCC)cc1,5.8,-3.3,-41.0,7.3,-9.2%,Arbovirus inh repeat=4.2
CCOC(=O)c1cnc(-n2nc(C)cc2C)nc1Oc1ccccc1F,x,x,x,-0.4,-2.2%,
Cc1cc(C(=O)COC(=O)CCC(=O)c2ccc3c(c2)OCCO3)c(C)n1Cc1ccco1,1.6,x,-44.8,-14.3,0.4%,
CCCNc1c(NS(=O)(=O)c2ccc3c(c2)CCCC3)c(=O)oc2ccccc12,x,0.9,x,0.7,x,
COc1cccc(SCc2noc(C(=O)NCCC(C)C)c2C(=O)NCCC(C)C)c1,x,1.8,x,6.8,5.0%,
CNC(=O)/C(C#N)=C/c1c(N2CCN(c3ccc(OC)cc3)CC2)nc2c(C)cccn2c1=O,x,-148.7,x,-2.1,x,
CS(=O)(=O)N(CC(=O)NCc1ccncc1)c1cc(Cl)cc(Cl)c1,2.6,-2.9,3.2,3.0,-5.0%,Arbovirus inh repeat=0.2
Cc1ccc(C)c(SCC(=O)Nc2oc(C)c3c(C)n[nH]c(=O)c23)c1,x,7.3,x,-0.3,x,
CCCn1c(SCC(=O)N2CCc3ccccc32)nnc1-c1ccco1,-4.1,3.7,-35.2,15.0,-0.3%,
CCOc1ccc(-n2c(C)cc(/C=N/NC(=O)C(N)=O)c2C)cc1,3.0,-1.1,x,73.4,u,
C=CCNC(=S)Nc1cc(S(=O)(=O)N2CCOCC2)ccc1-n1cncn1,-8.0,-0.4,-34.2,-5.5,-4.8%,
O=C(NCc1ccc(Cl)cc1)c1cccc(NC(=O)c2ccccc2)c1,-29.0,9.8,-13.7,7.2,8.8%,
CCOC(=O)c1ccccc1NC(=O)CC1SC(=NC)N(C)C1=O (configuration not stated),6.1,1.7,-14.8,-5.5,-6.0%,Arbovirus inh repeat=0.6
O=C(O)CC(NC(=O)CCc1ccccc1)c1ccc(Cl)cc1 (configuration not stated),x,-1.1,x,2.3,x,
CN(Cc1ccccc1)Cc1nc2c(c(=O)n(C)c(=O)n2C)n1CCc1ccccc1,x,3.5,3.7,3.7,22.0%,

# An excerpt from above in order of number of heavy atoms, smallest number first:
SMILES,Arbovirus inh,RecA splice inh,YopH PTP inh,Mtb betalactam,Mtb growth,others
Cc1cc(C)nc(SCC(=O)N2CCc3ccccc32)n1,x,0.7,x,5.5,x,
c1csc(-c2noc(COc3ccc4c(c3)CCCC4)n2)c1,9.7,3.6,-2.3,6.9,9.2%,
Cc1ccc(C)c(SCC(=O)Nc2oc(C)c3c(C)n[nH]c(=O)c23)c1,x,7.3,x,-0.3,x,
COc1cccc(SCc2noc(C(=O)NCCC(C)C)c2C(=O)NCCC(C)C)c1,x,1.8,x,6.8,5.0%,

# More compounds:
SMILES,Arbovirus inh,RecA splice inh,YopH PTP inh,Mtb betalactam,Mtb growth,others
COc1ccc(NC(=O)CC2C(=O)N(C)C(=S)N2Cc2cccs2)cc1 (configuration not stated),1.0,4.1,-34.5,-4.3,1.9%,
Cc1nn(C)c(Cl)c1CN1CCN(C2CCCC2)C(CCO)C1 (configuration not stated),-1.3,-1.2,x,-1.0,-3.6%,
CCNc1ccc(C(=O)N/N=C/c2c(C)nn(-c3ccccc3)c2N2CCCC2)cc1[N+](=O)[O-],-11.0,-2.4,-14.4,-0.4,1.6%,
COc1ccc2c(=O)c3c(=O)n(Cc4ccco4)c(-c4ccc(C)cc4)nc3oc2c1,7.2,2.3,-36.1,1.1,2.6%,
Cc1cc(C)nc(N(C#N)C(C)C(=O)N(C)C)n1 (configuration not stated),3.7,-2.8,-19.1,3.5,3.1%,
O=C(N/N=C/c1ccccn1)c1cc(-c2ccc(Br)s2)[nH]n1,x,0.4,x,7.4,x,
CCOC(=O)COc1ccc2c(c1)C(=O)CC(C)(C)O2,11.1,-10.6,-14.6,66.1,2.7%,
O=C(N/N=C/C=C/c1ccc(Br)cc1)C(O)c1ccccc1 (configuration not stated),-12.0,2.8,-5.4,14.9,1.4%,
COc1ccc(CNC(=O)C(C)n2nc(C)c3c(C)n(-c4ccc(C)cc4)nc3c2=O)cc1 (configuration not stated),x,2.6,x,-3.1,x,
C[C@@H]1C=CC(=O)O[C@@H]1c1ccc(Cl)cc1,x,0.7,x,-4.8,x,
CSCCC(NS(=O)(=O)c1ccc2c(c1)oc(=O)n2C)C(=O)NCc1cccs1 (configuration not stated),x,2.6,x,3.8,5.7%,
CC[n+]1ccccc1/C=C1\Sc2ccc(C)cc2N1C,x,3.2,x,2.0,x,
CCOC(=O)Nc1ccc2c(c1)N(CCCN(C)C)c1ccccc1CC2,x,-2.2,x,-7.0,x,
Cc1ccccc1N1CCN(C(=S)c2ccc(-c3cccc([N+](=O)[O-])c3)o2)CC1,-13.2,0.7,x,4.8,4.8%,
CCOCCCNC(=O)CCNS(=O)(=O)c1ccc(C)cc1,6.3,3.0,-18.7,1.8,2.2%,
COc1ccc2nc(NC(=O)CCc3ccc(OC)c(OC)c3)sc2c1,-11.2,-1.3,x,-1.2,-1.1%,
CCc1cc(=O)oc2cc(C)cc(OCC(=O)NCCc3c[nH]c4ccccc34)c12,x,1.5,x,-2.3,x,
CC(=O)Nc1ccc(S(=O)(=O)N(CC(=O)O)Cc2ccccc2)cc1,9.0,-1.3,-42.5,-3.3,-4.5%,
Cc1cc(NC(=O)CSc2nnc(C)n2C)no1,x,2.6,x,0.1,x,
Cc1ccc(NC(=O)N2CCN(C(=O)c3ccco3)CC2)cc1Cl,x,-0.4,x,-6.2,x,
CCCC(=O)Nc1nc2nc(-c3ccccc3)cc(-c3ccccc3)n2n1,0.0,-2.3,-70.1,-7.1,-9.9%,
Cc1nn(-c2ccccc2)c(C)c1C(=O)OCC(=O)NC(=O)NC1CCCCC1,14.8,3.3,-32.1,-7.9,4.4%,
Cc1sc2ncnc(Nc3ccccc3)c2c1C,8.9,4.4,-2.7,17.7,10.3%,
Cc1ccc2cc(CN(CC3CCCO3)C(=S)NCc3ccco3)c(=O)[nH]c2c1 (configuration not stated),0.4,6.5,x,-2.3,1.7%,
CCn1c2c(c3ccc(OC)cc31)CCCC2=O,7.6,0.9,-40.2,17.1,-12.1%,
# The list continues:
SMILES,Arbovirus inh,RecA splice inh,YopH PTP inh,Mtb betalactam,Mtb growth,others
Cc1c(C(=O)N2CCN(c3ccccn3)CC2)cccc1[N+](=O)[O-],-0.9,-1.1,x,-4.2,9.6%,
O=C(OCc1nc2ccccc2s1)c1cccc(S(=O)(=O)N2CCOCC2)c1,-4.8,-1.5,-33.1,34.3,-4.1%,
CCCc1ccc(-c2cc(NC(=O)CSc3n[nH]c(N)n3)n(-c3ccccc3)n2)cc1,-41.7,0.6,1.0,u,11.5%,
OCC#CC[N+]1(CC#Cc2ccccc2)CCOCC1,-3.5,x,x,-6.0,8.3%,
Cc1csc(SC(C)C(=O)Nc2ccc(S(=O)(=O)N3CCCC3)cc2)n1 (configuration not stated),0.4,0.6,-1.9,-5.7,-7.6%,
COc1ccc(CC(=O)NC2CC(C)(C)NC(C)(C)C2)cc1,0.5,0.2,10.8,2.7,-8.5%,
COc1cccc(NC(=O)NC2(C(=O)N3CCN(C)CC3)CCCCC2)c1,x,-1.0,x,-6.3,x,
Cc1ccc(S(=O)(=O)NC(CC(C)C)C(=O)N2CCOCCOCCOCCOCC2)cc1 (configuration not stated),x,0.5,x,3.9,x,
O=C1NCC(c2ccccc2)C1C(=O)N/N=C/c1ccc(Cl)s1 (configuration not stated),4.1,x,x,6.1,-3.1%,
CSc1nnc(-c2sc3cc(Cl)ccc3c2Cl)n1C,-8.8,-0.3,-3.8,12.9,-8.9%,
COC(=O)C(Cc1ccccc1)NC(=O)CNC(=O)c1ccc(Br)cc1 (configuration not stated),x,2.1,x,41.2,x,
Cc1ccc(/C=C2\SC(=S)N(C3CCS(=O)(=O)C3)C2=O)cc1 (configuration not stated),4.6,6.8,x,9.1,-0.8%,
CCOC(=O)CC12CN3CN(C1)CC(CC(=O)OCC)(C3)C2=O,12.6,-2.0,8.9,2.3,8.1%,
CSc1sc(-c2nnc(SCC(=O)Nc3ccccc3)n2C)c2c1C=CCC2,x,-1.0,x,10.2,-1.4%,
COc1ccc(S(=O)(=O)N(CC(=O)NCC2CCCO2)Cc2ccccc2)cc1C (configuration not stated),x,-5.5,x,5.3,x,
CCOC(=O)c1sc(NC(=O)c2ccc(S(=O)(=O)N3CCOCC3)cc2)cc1C,-7.5,-13.1,-30.3,-8.7,-14.5%,
CCCc1nnc(NC(=O)c2cn(CC)c3cc(N4CCN(C)CC4)c(F)cc3c2=O)s1,x,-1.7,x,-4.0,-1.5%,
COc1c(C(=O)Nc2ccc3[nH]c(=O)[nH]c3c2)cc2ccccc2c1Br,4.7,-12.4,x,1.5,1.6%,
Cc1ccc(NC(=S)NCCSc2ccc(Cl)cc2)cc1,-1.0,7.8,x,-5.3,36.0%,
O=C(NCc1cccs1)c1cccnc1SCCS(=O)(=O)c1ccc(C(F)(F)F)cn1,x,-2.2,x,3.1,1.9%,
COc1ccc2cc(C3CC(c4ccco4)=NN3S(=O)(=O)c3ccccc3)c(Cl)nc2c1 (configuration not stated),-5.0,9.2,-5.1,2.8,-2.2%,
O=C(Nc1ccc(CCC(=O)N2CCCC2)cc1)c1ncn[nH]1,5.7,-1.3,-37.9,2.2,-9.9%,
Cc1cc(C)c2c(CN3CCOCC3)cc(=O)oc2c1,x,-7.1,x,-2.0,-5.0%,
Cc1ccc(S(=O)(=O)N2CCCCC2CCNC(=O)C(=O)Nc2ccccc2F)cc1 (configuration not stated),x,4.0,x,-4.0,x,
CC1(C)OC(=O)C(=NNc2ccc(O)cc2)C(=O)O1,-25.1,x,-34.4,6.5,4.0%,

# Filtered by structure, those above containing a cyano group.
SMILES,Arbovirus inh,RecA splice inh,YopH PTP inh,Mtb betalactam,Mtb growth,others
CNC(=O)/C(C#N)=C/c1c(N2CCN(c3ccc(OC)cc3)CC2)nc2c(C)cccn2c1=O,x,-148.7,x,-2.1,x,
Cc1cc(C)nc(N(C#N)C(C)C(=O)N(C)C)n1 (configuration not stated),3.7,-2.8,-19.1,3.5,3.1%,

# (more compounds)
SMILES,Arbovirus inh,RecA splice inh,YopH PTP inh,Mtb betalactam,Mtb growth,others
Cc1ccc(Cn2c(C3CCCN3c3nc(-c4cc(Cl)c(N)c(Cl)c4)cs3)nc3cc(C(=O)NCCCO)ccc32)cc1 (configuration not stated),x,26.3,x,18.1,-10.8%,
S=C(NCc1ccco1)Nc1ccc(Cl)cc1,6.2,-0.4,-20.7,3.0,5.0%,
Cc1ccc(S(=O)(=O)NCc2ccc(N3CCN(C(=O)OC(C)(C)C)CC3)cc2)cc1,x,0.6,x,7.2,x,
Cc1cnc(NC(=O)CSc2nnc(-c3ccccc3)n2Cc2ccccc2)s1,0.9,1.9,0.9,u,-2.8%,
COC(=O)c1nc(C(=O)OC)c(C(=O)OC)nc1C(=O)OC,5.3,-2.1,-46.6,6.0,-0.4%,
Cn1c(=O)c2c(nc(CN3CCN(c4ccc(F)cc4)CC3)n2CCN2CCOCC2)n(C)c1=O,x,0.9,x,-4.3,-1.9%,
Cc1ccc([N+](=O)[O-])cc1NC(=O)CCc1ccccc1,2.1,-2.5,x,1.0,5.6%,
CS(=O)(=O)N(CC(=O)Nc1ccccc1C(=O)NCc1ccco1)c1ccccc1F,0.5,-1.4,x,-8.7,1.4%,
COc1ccc(NC2CCCN(Cc3cccc4cnccc34)C2)cc1OC (configuration not stated),x,3.8,x,6.3,x,
